Screening data deposited in PubChem BioAssay by ICCB-Longwood Screening Facility, Harvard Medical School.
HCMV NEC inh – inhibitors of HCMV UL50-UL53 nuclear egress complex interaction; HTRF UL50-UL53 interaction, normalized percent inhibition; 190,000 tested, 0.15% active; inhibition, % (no concentration beside the values);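 active = both replicates at 50% or more, plus weaker picks with an unusually low signal ratio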;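 also: stock transfer was 100 nL into about 20 µL; 0% = negative control wells and 100% = wells with untagged competitor protein; inactives centre near -12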
Sa growth 42C – inhibitors of Staphylococcus aureus growth at 42 °C. S. aureus RN4220 growth, OD600, 20 h; hits give low values. AID 720641. relative growth, % (test concentration not listed). 170,000 tested, 0.53% active;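 active = growth at 42 °C up to 50% and 20 or more points under that at 30 °C, or under 10% at both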;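 also: 300 nL library stock went into each well; scaled to the means of positive and negative controls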
GIV Gai3 FP – blocks GIV peptide binding to rat Galpha-i3; P08753; percent of control (FP), % (no concentration beside the values); Galpha-i3/FITC-GIV peptide fluorescence polarization, 90 min; hits give low values; scaled: aluminum fluoride 0%, vehicle 100%; 210,000 tested, 0.42% active;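 active = replicate mean at 85% of control or lower, very high polarization wells dropped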;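 also: wells of about 15 µL received 100 nL stock; the first replicate is given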
Target sequence (P08753 whole entry, looked up): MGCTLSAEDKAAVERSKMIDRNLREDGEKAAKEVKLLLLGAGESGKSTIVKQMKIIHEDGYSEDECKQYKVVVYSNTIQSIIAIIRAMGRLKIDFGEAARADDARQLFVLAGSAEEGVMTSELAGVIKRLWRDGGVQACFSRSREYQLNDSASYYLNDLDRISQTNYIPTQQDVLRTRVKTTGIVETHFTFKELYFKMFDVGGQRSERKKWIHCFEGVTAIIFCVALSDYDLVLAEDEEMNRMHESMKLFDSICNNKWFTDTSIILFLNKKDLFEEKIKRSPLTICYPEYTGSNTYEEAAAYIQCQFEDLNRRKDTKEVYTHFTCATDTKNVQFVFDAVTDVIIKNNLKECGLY
Sa growth 42C second temp – second read-out of Sa growth 42C, no call of its own (marks repeat the call); relative growth, %; measured here: growth at 30 °C;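 optical density after 20 h as mean of two plates; 100% = untreated growth and lower means inhibition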
Numbers without * were called inactive; nt = not tested or not shown; & = joins results of further samples.

SMILES	HCMV NEC inh	Sa growth 42C	Sa growth 42C second temp	GIV Gai3 FP
CC(C)(C)N1CC(O)C1	-22	123	85	nt
COc1cccc(C(=O)NC(=S)Nn2cnnc2)c1OC	-9	111	90	nt
CN1C(=O)c2ccc(C(=O)NC3CCCCC3)cc2C1=O	-12	108	94	104
CCC(Sc1nnc(-c2cc(C)ccc2NC(C)=O)c(=O)[nH]1)C(=O)Nc1cccc(Cl)c1 (stereo unspecified)	-32	nt	nt	96
O=c1cc(Nc2ccc(N3CCCCC3)cc2)[nH]c(=O)[nH]1	-10	90	86	nt
COc1cccc(NC(=O)Cn2cnc3c2c(=O)n(C)c(=O)n3C)c1	-7	nt	nt	105
Cc1oc2ncnc(N3CCCC(C(=O)NCc4ccccc4)C3)c2c1C (stereo unspecified)	-14	nt	nt	103
O=C(Cn1nnc(-c2ccccc2)n1)OCC(=O)c1ccccc1	21	93	96	nt
Cc1ccccc1NC(=O)CSc1ccc(-c2sc(-c3ccccc3)nc2C)nn1	-17	nt	nt	102
CCCCNC(=O)CCc1c(C)nc2c(c(C)nn2-c2ccccc2)c1C	-12	107	87	98
Clc1ccc(-c2noc(-c3ccc(N4CCCC4)nn3)n2)cc1	-23	nt	nt	97
COc1nc(NCCN2CCOCC2)nc(Nc2ccc(I)cc2)n1	-18	94	90	100
Cc1ccc(Cl)cc1NS(=O)(=O)c1cc2c(cc1C)NC(=O)CO2	-21	nt	nt	100
CC1CCCCN1C(=O)CSc1nc2cc3c(cc2c(=O)n1Cc1ccc2c(c1)OCO2)OCO3 (stereo unspecified)	-22	97	90	102
S=C(NCCN1CCOCC1)NN(Cc1ccccc1)c1ccccc1	4	91	87	nt
Cc1[nH]n(-c2nc3ccccc3s2)c(=O)c1C1OC(=O)c2ccccc21 (stereo unspecified)	nt	84	55	91
CC(C)(C)CC(C)(C)c1ccc(OCC(=O)Nc2ccc(S(=O)(=O)Nc3ncccn3)cc2)cc1	-102	97	89	112
Cc1ccc(-c2cc(C(=O)Nc3ccc(SC(F)F)cc3)no2)cc1F	-4	95	93	99
COc1cc(/C=C2\Sc3ccccc3C2=O)cc([N+](=O)[O-])c1O	-88	nt	nt	104
Clc1ccc(-c2nc(-c3ccccn3)no2)c(Cl)c1	-4	nt	nt	100
N#CC1=C(SCC(N)=O)NC(=O)CC1c1ccccc1 (stereo unspecified)	-31	88	85	97
COc1ccc(OCc2nc(-c3ccc(-n4cccc4)cc3)no2)cc1	nt	115	91	103
Clc1ccc(-c2nn[nH]n2)cc1	2	nt	nt	100
Cc1cccc(C(=O)Nc2ccc(OCc3cc(=O)n4c5c(sc4n3)CCCC5)cc2)c1	-16	98	90	102
CCN1CCc2nc3sc(C(=O)c4ccccc4)c(N)c3cc2C1	-118&-67	112	71	199&124
Nc1ncnc(Sc2nc3ccccc3o2)c1[N+](=O)[O-]	-45	nt	nt	107
CN1CCN(CC(=O)N/N=C/c2ccc(F)c(F)c2)CC1	-14	113	102	97
CCNC(=O)c1c(NC(=O)c2nc(S(=O)(=O)CC)ncc2Cl)sc2c1CCCC2	-12&13	94	78	104&108
CNC(=O)NCc1c(N(C)C)cccc1N(C)C	-28	97	89	105
Cc1c(-c2ccc(Cl)cc2)c(=O)oc2c(CN3CCCC3)c(O)ccc12	nt	100	92	100
Cc1ccc(-n2c(O)c(C=NCc3ccncc3)c3ccccc3c2=O)cc1C	-59	92	85	nt
CN(C)c1ccc(C(=O)Nc2sc(Nc3ccccc3)nc2C(N)=O)cc1	nt	103	73	102
COCCNC(=O)Nc1ccc2c(c1)nc(C)n2C	3	106	95	103
C=CCN1C(=O)c2ccc(C(=O)OCC(=O)Nc3ccccc3OC)cc2C1=O	-10	87	92	nt
C=CCN1C(=O)/C(=c2\sc3n(c2=O)C(c2cccs2)C(C(=O)OCC)=C(C)N=3)c2ccccc21 (stereo unspecified)	-6	nt	nt	108
CCS(=O)(=O)N1CCC(C(=O)N2CCN(Cc3ccc4c(c3)OCO4)CC2)CC1	nt	99	85	106
COc1cc(C2Nc3ccccc3-c3cc(C)nn32)ccc1O (stereo unspecified)	15	120	106	99
O=C(COc1ccccc1O)NCCO	-2	104	97	99
CCN(CC)S(=O)(=O)c1ccc2c(c1)nc(C(F)(F)F)n2CCC(=O)Nc1cc(C)cc(C)c1	9	nt	nt	110
CC1(C)N=C(SCc2ccc(Cl)cc2)c2ccccc2N1	nt	107	110	106
CC(=O)N(Cc1cccc(Br)c1)c1ccc2oc(-c3ccc(C)cc3)nc2c1	nt	101	59	102
Cc1ccc2oc(=O)c(CCC(=O)O)nc2c1	-4	105	87	nt
COc1ccc(N2C(=O)CC(c3ccc(OC)c(OC)c3)CC2=O)cc1Cl	-6	nt	nt	98
COC(=O)c1cn(-c2ccccc2)nc1-c1cccnc1	nt	104	76	102
Cc1ccc(-c2[nH]c(-c3ccc(F)cc3)nc2SCC(=O)NCC2CCCO2)cc1 (stereo unspecified)	nt	99	87	98
Cc1cc(N2C(=O)CCS2(=O)=O)ccc1S(=O)(=O)N(C)C1CCS(=O)(=O)C1 (stereo unspecified)	-27	nt	nt	104
O=C(Nc1ccc(N2CCOCC2)c(Cl)c1)c1ccccc1	-11	112	86	98
Cc1cccc(Nc2nccc(=O)[nH]2)c1	-24	nt	nt	102
Cc1ccc(NC(=O)Nc2ccc(SCc3cc(=O)n4c(ncn4C(C)C)n3)cc2)cc1	-6	nt	nt	105
COc1ccc(N2C(=O)NC(=O)/C(=C/c3cc(Br)c(O)c(OC)c3)C2=O)cc1	-19	nt	nt	112
O=C(CNc1ccc(Br)cc1)N/N=C/c1ccco1	-12	94	96	106
CC(C)c1ccc(NC(=O)COC(=O)C2CCCCC2)cc1	-15	110	87	nt
c1ccc2sc(CSC3=NCCN3)nc2c1	-19	66	86	nt
Cc1ccccc1CSc1nc2c(-c3ccccc3)c[nH]c2c(=O)[nH]1	-46	nt	nt	107
CC(C)CCCC(C)[C@H]1CCC2C3CC=C4C[C@@H](O)CC[C@]4(C)C3CC[C@@]21C (stereo partly specified)	-16	100	97	nt
COC(=O)c1sccc1N1CC(C)(C)C1=O	3	nt	nt	104
Cc1ccc(C(=O)c2cnc3cc4c(cc3c2N2CCCC2)OCO4)cc1C	-4	109	85	106
Cn1c(=O)nc2n(-c3ccc(Cl)c(Cl)c3)c3cc(Cl)ccc3cc-2c1=O	-29	114	86	104
CCOC(=O)c1cc(S(=O)(=O)NC(C)CC)cn1C (stereo unspecified)	nt	91	78	103
COc1ccc(NC(=O)NCc2c(-n3cccc3)sc3c2CCCC3)c(OC)c1	-1	107	95	100
Next section
SMILES	HCMV NEC inh	Sa growth 42C	Sa growth 42C second temp	GIV Gai3 FP
CCN1C(=O)c2ccccc2Sc2ccc(NC(=O)c3ccc(Cl)cc3)cc21	nt	91	86	99
Cc1ccc(NC(=O)Cc2ccc(NC(=O)N3CCCCc4ccccc43)cc2)cc1	nt	117	95	91
CC(C)(C)NC(=O)NC(=O)Cn1nnc(-c2ccccc2)n1	-22	79	92	nt
Cc1ccc(CNC(=O)CNS(=O)(=O)c2cccs2)cc1	nt	97	84	119
COc1ccc(-c2nc(NC3CCCCC3)c3ccccc3n2)cc1OC	5	nt	nt	106
Clc1ccc(CSc2nc3ncccc3[nH]2)cc1	-23	100	93	97
CC(C)COC(=O)COc1ccc2c(=O)c(Oc3ccccc3Br)coc2c1	-7	nt	nt	106
Cc1ccc(C)c(NC(=O)N2CCN(c3cc(N(C)C)nc(C)n3)CC2)c1	-32	nt	nt	99
O=C(NCc1cccs1)c1cc(F)cc2c1OCOC2	-3	107	102	100
COc1ccc2[nH]cc(CCC(=O)O)c2c1	-8&-17	115	83	99
CCS(=O)(=O)N1CCN(C(=O)c2ccccc2Cl)CC1	-6	100	92	104
Cn1cnc2c(=O)oc3ccc(S(=O)(=O)NC4CCCC4)cc3c21	-12	99	93	98
Cc1cc(N/C=C2/C(=O)c3sccc3N(Cc3cccc(F)c3)S2(=O)=O)no1	-3	102	100	104
O=C(OCc1nnc(-c2cc3c(s2)CCCC3)o1)c1cccc(CN2C(=O)c3ccccc3C2=O)c1	-22	91	96	nt
CNCC(=O)N(C)c1c(N)n(Cc2ccccc2)c(=O)[nH]c1=O	-20	101	100	nt
CCOC(=O)c1c(O)cc(C)cc1Nc1ccccc1	nt	112	90	98
N#Cc1ccccc1NC(=O)c1ccco1	-19	81	85	103
Cc1ccc(-c2cc(-c3ccccc3)c(C#N)c(SCC(O)CS(=O)(=O)Cc3ccccc3)n2)cc1 (stereo unspecified)	-53	90	85	105
O=C(Nc1ccccc1C(F)(F)F)C1CCN(S(=O)(=O)Cc2ccccc2)CC1	-32	103	92	106
CN(c1ccccc1)S(=O)(=O)Cc1ccccc1	-8	94	94	nt
FC(F)(F)c1ccc(SCc2ccc(-c3ncns3)cc2)nc1	-5	100	113	101
CC1=C(c2ccccn2)Oc2ccccc2O1	-15	94	75	nt
Cc1ccc(C)c(NC(=O)CN2C(=O)CSc3nc(C)cc(C)c32)c1	-13	99	94	107
COc1ccc(C)cc1N=Cc1ccc(C)s1	-29	121	82	nt
O=C(O)CC(NC(=O)Nc1ccccc1)c1ccsc1 (stereo unspecified)	-41	97	85	101
O=C(Nc1cccc2c1CCCC2)c1cc(-c2ccccn2)n[nH]1	-13	nt	nt	103
O=C(Nc1c(C(=O)N2CCC(N3CCCCC3)CC2)oc2ccccc12)c1c(F)cccc1F	nt	89	94	104
O=C(c1ccc(F)cc1)c1coc2ccc(O)cc12	-7	77	79	110
CC1CC(CN)CC(CO)C1 (stereo unspecified)	-28	89	82	104
CCOC(=O)c1c(C)[nH]c(C(=O)C(C)C)c1C	16	95	95	nt
COc1ccccc1NC(=O)c1ccccc1NS(=O)(=O)N1CCCC1	-6	104	86	nt
CCNCc1cccs1	-16	78	90	nt
CCOc1ccc(N2C(=O)CS(=O)(=O)C23C(=O)N(Cc2cccc(Cl)c2)c2ccccc23)cc1 (stereo unspecified)	nt	89	95	100
CS(=O)(=O)N1CCN(c2cc(-c3cccc(F)c3)ncn2)CC1	-23	nt	nt	101
NC(=O)NCc1ccco1	6	91	95	nt
Cc1cc(C)c(S(=O)(=O)N(CCCN2CCCC2=O)CC(=O)N2CCNCC2)c(C)c1	7	nt	nt	113

Of the compounds above, three have a COOH group:
SMILES	HCMV NEC inh	Sa growth 42C	Sa growth 42C second temp	GIV Gai3 FP
Cc1ccc2oc(=O)c(CCC(=O)O)nc2c1	-4	105	87	nt
COc1ccc2[nH]cc(CCC(=O)O)c2c1	-8&-17	115	83	99
O=C(O)CC(NC(=O)Nc1ccccc1)c1ccsc1 (stereo unspecified)	-41	97	85	101

Additional compounds.
SMILES	HCMV NEC inh	Sa growth 42C	Sa growth 42C second temp	GIV Gai3 FP
CC12CN(C(=O)c3ccccc3)C3(C#N)CC1CCC23C (stereo unspecified)	-7	108	91	100
Cc1coc2c(C)c3oc(=O)c(CC(=O)NCc4ccccc4)c(C)c3cc12	-28	98	90	107
CCOC(=O)C1CCN(Cc2nc3ccccc3c(=O)n2-c2ccc(OCC)cc2)CC1	-13	119	98	102
COC(=O)c1c(C)[nH]c(C(=O)N2CCC(CC(=O)NCCc3c[nH]c4ccc(C)cc34)CC2)c1C	-4	nt	nt	111
Cc1cc(OC(C)C(=O)Oc2cccc(-n3cnnn3)c2)cc(C)c1Cl (stereo unspecified)	-11	nt	nt	104
CCOC(=O)C1=C(N)OC2=C(C(=O)CC(C)(C)C2)C1c1ccccc1[N+](=O)[O-] (stereo unspecified)	-10	nt	nt	105
CC(C)NC(=O)C1CCN(c2cc(-c3ccc(F)cc3)ncn2)CC1	2	nt	nt	100
O=S(=O)(NCC(c1ccco1)N1CCOCC1)c1cc(F)ccc1F (stereo unspecified)	nt	94	89	100
CCc1ccc(Nc2nc3cc(OC)ccc3cc2C#N)cc1	nt	106	90	101
CN(C)c1ccc(C(CNS(C)(=O)=O)N2CCN(c3ccc(F)cc3)CC2)cc1 (stereo unspecified)	-18	nt	nt	99
CC(C)C(=O)Nc1ccc2c(c1)nc(CCNC(=O)C1CC1)n2C	-13	nt	nt	104
COc1ccc(C2CC(=O)C3=C(C2)Nc2ccccc2NC3c2ccc(OC)c(OC)c2OC)cc1OC (stereo unspecified)	-8	nt	nt	104

Exported with two lines to a compound: part of the list above.
Each structure is followed by: HCMV NEC inh, Sa growth 42C, Sa growth 42C second temp, GIV Gai3 FP
> COC(=O)c1sccc1N1CC(C)(C)C1=O
    3, nt, nt, 104
> O=C(OCc1nnc(-c2cc3c(s2)CCCC3)o1)c1cccc(CN2C(=O)c3ccccc3C2=O)c1
    -22, 91, 96, nt
> CN(C)c1ccc(C(CNS(C)(=O)=O)N2CCN(c3ccc(F)cc3)CC2)cc1 (stereo unspecified)
    -18, nt, nt, 99
> c1ccc2sc(CSC3=NCCN3)nc2c1
    -19, 66, 86, nt
> O=C(Nc1c(C(=O)N2CCC(N3CCCCC3)CC2)oc2ccccc12)c1c(F)cccc1F
    nt, 89, 94, 104

More compounds follow.
SMILES	HCMV NEC inh	Sa growth 42C	Sa growth 42C second temp	GIV Gai3 FP
Cc1oc2ccc(NS(=O)(=O)c3ccc4c5c(cccc35)C(=O)N4)cc2c1C(=O)OC(C)C	-48	nt	nt	104
CN(C(=O)c1ccccc1)c1nc(-c2ccccc2)cs1	-16	127	94	106
CN1CCCC(n2nc(Cc3ccc(Cl)cc3)c3ccccc3c2=O)CC1 (stereo unspecified)	-38&-15&-67	95&94	78&86	nt
O=c1c2oc3ccccc3c2[nH]c(=S)n1CCc1ccccc1	-13	107	86	104
COc1ccc2c(c1)c1c(c(=O)n(-c3ccccc3C)c(=O)n1Cc1ccccc1C)n2C	nt	122	94	110
